Rango dissoc inh: qHTS Assay for Inhibitors of RanGTP induced Rango (Ran-regulated importin-beta cargo) - Importin beta complex dissociation; Snurportin-1 (Homo sapiens) + GTP-binding nuclear protein Ran (Homo sapiens) + Importin …; Biochemical FRET Rango-importin beta, RanGTP-induced dissociation; Potency, µM (highest dose often 46.1 µM), for the others: at the top dose activity change, negative = inhibition; actives 0.071% (n = 340,000); AID 540253, 2011; active means falling FRET ratio curve, often poorly fitted, with flat reads before Ran was added; inconclusive means other falling curves, or compound fluorescence or quenching; inactive means flat or rising ratio curve;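 further: potency means the concentration at half of the fitted maximal effect; % of control where 0% means no effect; nearly all actives have a fitted effect of over 45% in size; -100% = wells without RanGTP and RCC1; the record marks most hits as doubtful in a second field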
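FRET read at 45 min, room temperature: inhibitors block the CFP/YFP signal rise when RanGTP (0.6 uM Ran, 2 mM GTP, 0.2 uM RCC1) frees Rango (0.1 uM) from importin beta (0.25 uM). Pre-read after 5 min compound exposure flags interference.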
miR-21 FLuc: qHTS Assay for Modulators of miRNAs and/orActivators of miR-21 | 340,000 tested, under 10 active | HeLa miR-21 FLuc reporter, luciferase, 48 h | Potency, µM (series often up to 38.3 µM), inactives show at the highest dose reporter change, positive = more light; active = well fitted rising curve with a large enough effect; inconclusive = small, poorly fitted or top-dose-only effect; inactive = no such curve, though single readings can be large or run the other way;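 further: % of control where 0% means no effect; miR-21 action dims this reporter so a rising signal means less miR-21 action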
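Compounds were titrated across several concentrations (up to approximately 40 uM) and incubated 48 hours with HeLa miR-21-FLuc reporter cells (miR-21 target sequence downstream of FLuc, endogenous miR-21). Readout was firefly luciferase luminescence after lytic detection reagent.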
Rango complex inh: qHTS Assay for Inhibitors of Rango (Ran-regulated importin-beta cargo) - Importin beta complex formation | Importin subunit beta-1 (Homo sapiens), Q14974 | Rango CFP/YFP FRET sensor + importin beta, 45 min | Potency, µM (top dose mostly 92.2 µM), for the others: top-dose inhibition of complex formation | actives 0.031% (n = 340,000) | AID 540263, 2011; active = rising FRET ratio curve, often small or poorly fitted; inconclusive = mostly compound fluorescence or quenching in the first reads; inactive = flat curves in all reads;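 further: potency means the concentration at half of the fitted maximal effect; 0% = DMSO wells and 100% = buffer wells lacking importin beta; nearly all actives have a fitted effect of over 15% in size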
Target sequence (Q14974 whole entry, looked up): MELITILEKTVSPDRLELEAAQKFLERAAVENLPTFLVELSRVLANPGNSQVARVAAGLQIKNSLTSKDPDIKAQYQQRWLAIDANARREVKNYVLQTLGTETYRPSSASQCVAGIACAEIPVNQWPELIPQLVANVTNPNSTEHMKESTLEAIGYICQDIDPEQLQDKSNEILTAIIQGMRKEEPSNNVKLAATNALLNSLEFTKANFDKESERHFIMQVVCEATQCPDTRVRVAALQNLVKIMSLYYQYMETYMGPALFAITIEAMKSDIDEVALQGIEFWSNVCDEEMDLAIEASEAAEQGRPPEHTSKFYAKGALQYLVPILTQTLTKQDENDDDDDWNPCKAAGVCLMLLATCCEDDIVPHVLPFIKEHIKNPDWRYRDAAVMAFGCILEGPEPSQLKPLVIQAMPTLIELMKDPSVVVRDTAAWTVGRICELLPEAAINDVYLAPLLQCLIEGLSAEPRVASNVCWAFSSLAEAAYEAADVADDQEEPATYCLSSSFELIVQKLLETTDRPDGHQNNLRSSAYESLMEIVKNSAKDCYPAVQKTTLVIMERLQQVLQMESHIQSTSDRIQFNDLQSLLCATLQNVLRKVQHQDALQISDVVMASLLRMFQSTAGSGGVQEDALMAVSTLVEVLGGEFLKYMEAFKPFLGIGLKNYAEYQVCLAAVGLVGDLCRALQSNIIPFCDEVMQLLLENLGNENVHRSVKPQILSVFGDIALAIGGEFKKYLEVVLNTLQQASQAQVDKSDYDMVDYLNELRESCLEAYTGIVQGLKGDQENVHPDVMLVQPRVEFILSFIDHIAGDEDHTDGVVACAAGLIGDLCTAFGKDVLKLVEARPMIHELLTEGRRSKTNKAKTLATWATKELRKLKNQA
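FRET biosensor Rango (snurportin 1 IBB between N-terminal EYFP and C-terminal Cerulean), 50 nM in PBS/1 mM DTT/0.02% Tween-20/0.1% BSA, preincubated 5 min RT with compound; 0.125 microM importin beta added, 45 min RT, CFP/YFP FRET ratio read.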
GLA inh pH 4.5: qHTS Assay for Inhibitors of Human alpha-Galactosidase at pH 4.5 | Alpha-galactosidase A (Homo sapiens), P06280 | purified enzyme, 4-MU-alpha-Gal fluorescence, pH 4.5 | activity change, negative = inhibition, % at 105 µM | 230,000 tested, under 10 active | AID 1467, 2008; inconclusive = small, poorly fitted or top-dose-only inhibition, or a rising curve; inactive = flat fitted curve, though single readings scatter; no compound was filed as active;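 further: 0% = full activity with enzyme and -100% = basal without enzyme; dose as in the result columns while the protocol names 77 µM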
An asterisk follows results filed as active; ? = inconclusive; / = no result given; & = joins results of further samples.

Molecule | GLA inh pH 4.5 | Rango dissoc inh | Rango complex inh | miR-21 FLuc
COc1ccc(Oc2nnc(-c3ccc(C)cc3)c3ccccc23)cc1 | 3 | -4% | 4.1% | -7%
CCC(c1nnnn1C1CCCC1)N1CCN(c2ccccc2F)CC1 (stereo unspecified) | -4 | 6% | -2.5% | -2%
Cn1c(=O)[nH]c2sc3c(c2c1=O)CC(C)(C)OC3 | 5 | -3% | -0.1% | -3%
O=C(NCc1cccnc1)c1c[nH]c2cc3c(cc2c1=O)OCCO3 | 3 | 9% | 0.3% | -6%
CN1CCc2c(sc(NC(=O)c3ccc(C(=O)c4ccccc4)cc3)c2C(N)=O)C1 | / | -19% | ? | -2%
O=S(=O)(c1cc(Cl)cc(Cl)c1)N1CCC2CC1c1cc(Cl)ccc12 (stereo unspecified) | / | -4% | 2.8% | /
CC(C)(C)C(=O)Nc1sc2c(c1-c1nc3ccccc3[nH]1)CCCC2 | 25 | -5% | 0.5% | 0%
CC(C)(C)c1nn(-c2ccccc2)c2nc(Cl)c(C=O)cc12 | -3 | -2% | ? | -7%
Cc1cc(/C=C2\C(=N)N3N=C(S(C)(=O)=O)SC3=NC2=O)c(C)n1Cc1ccccc1 | -20 | ? | ? | -8%
Cc1cccc(NC(=O)COC(=O)c2cccs2)c1C | / | 15% | 4.5% | 9%

The list goes on.
Molecule | GLA inh pH 4.5 | Rango dissoc inh | Rango complex inh | miR-21 FLuc
COc1cc(Cl)c(C)cc1NC(=O)COC(=O)/C=C/c1c(C)nn(C2CCS(=O)(=O)C2)c1Cl (stereo unspecified) | -2 | -6% | 1.7% | -6%
CC(C)C[C@@H](COc1ccccc1)N1CCN(CCc2ccccc2)CCC1=O | / | 14% | 0.7% | 12%
O=C1C2CCCN2C(=O)N1CCCCN1CCN(c2ccc(F)cc2)CC1 (stereo unspecified) | 5 | 3% | -3.2% | -8%
O=C(CCCCCN1C(=O)CCC1=O)Nc1ccc(Br)cc1F | 1 | ? | 3.5% | -8%
CCOC(=O)c1c(NC(=O)C(=O)N/N=C/c2ccc(O)c(OC)c2)sc2c1CCCCC2 | -6 | 18% | ? | -6%
CCN1CCN(C(c2ccccc2)c2sc3nc(C)nn3c2O)CC1 (stereo unspecified) | 5 | 0% | -0.1% | 1%
COc1cc2c(N3CCOCC3)cc(O)c(CC(=O)Nc3ccccc3)c2cc1OC | 3 | 13% | 1.3% | -5%
Oc1ccc(NCc2ccccc2OCc2ccccc2F)cc1 | -1 | -11% | 0.3% | 26%&22%
O=C(NCCc1nc2ccc(Cl)cc2[nH]1)C1CCC(=O)N(Cc2cccc(F)c2)C1 (stereo unspecified) | / | -5% | -0.7% | -3%
CN(C)CC(=O)N1CCc2ccccc2C1 | -11 | 2% | -1.5% | -1%

Remaining list, next part.
Molecule | GLA inh pH 4.5 | Rango dissoc inh | Rango complex inh | miR-21 FLuc
COC(=O)C1=C(N)OC2=C(C(=O)CC(C)(C)C2)C1c1ccccc1OCC#N (stereo unspecified) | -6 | -11% | -2.5% | 4%
CCC(=O)NC(c1ccc([N+](=O)[O-])cc1)c1c(O)ccc2ccccc12 (stereo unspecified) | -3 | 11% | 3.1% | 17%
COC(=O)CNc1ccc2c(c1)OCO2 | 3 | 4% | -1.1% | -11%
Cc1ccc(S(C)(=O)=O)cc1C(=O)N1CC(C(N)=O)Oc2ccccc21 (stereo unspecified) | / | -2% | -0.1% | 9%
COC(=O)Nc1ccc2c(c1)N(C(=O)CCN1CCOCC1)c1ccccc1S2 | -8 | 12% | -3.4% | -7%
C[n+]1c2n(c3ccccc31)N=C(c1ccccc1)CS2 | 5&5 | 1%&-5% | 2.6%&0.4% | ?
CNC(=O)c1cc(C(=O)c2ccccc2C(F)(F)F)c[nH]1 | -3 | 0% | -6.0% | 5%
COc1cccc(C(=O)/C(C#N)=N/Nc2cccc(-c3ccnc(C)n3)c2)c1 | -3 | 0% | 7.7% | -10%
O=C(O)c1c(Cl)c(Cl)c(Cl)c(Cl)c1C(=O)N1CCOCC1 | -1 | 2% | 1.6% | -7%
COc1ccc(C)cc1NC(=O)CNC(c1ccccc1)c1ccccc1 | / | 0% | -0.6% | -1%

Remaining list, next part.
Molecule | GLA inh pH 4.5 | Rango dissoc inh | Rango complex inh | miR-21 FLuc
O=C(COC(=O)CCC(=O)c1ccc(Cl)cc1)NCc1ccco1 | -2 | -4% | -3.6% | 2%
CCOC(=O)[C@@H]1[C@H]2COc3ccccc3[C@@H]2N2C(=O)N(c3cccc(Cl)c3)C(=O)[C@]12C | / | 2% | 5.2% | 9%
CCCN1CCC(NC(=S)Nc2ccc(OC)c(OC)c2)CC1 | -3 | -3% | 0.2% | -1%
Cc1cccc(C)c1NC(=O)CNC(=O)C(C)N1CCN(c2cccc(Cl)c2)CC1 (stereo unspecified) | / | -11% | -2.4% | /
O=C(CSc1ncnc2c1cnn2-c1ccccc1)NC1CCS(=O)(=O)C1 (stereo unspecified) | / | ? | 0.1% | /
O=S(=O)(NCc1ccccc1Cl)c1ccc(-n2cccn2)cc1 | / | -11% | -3.1% | 5%
CC(OC(=O)c1ccccc1NS(=O)(=O)c1cccc(C(F)(F)F)c1)C(=O)N(C)Cc1ccccc1 (stereo unspecified) | -6 | 11% | 0.5% | 10%
Cc1ccc(NC(=O)CCN2C(=O)C3CC=CCC3C2=O)cc1Cl (stereo unspecified) | / | ? | -0.3% | /
CCOC(=O)N1CCN(C(=O)C(CC(C)C)NS(=O)(=O)c2ccc(C)cc2)CC1 (stereo unspecified) | / | -7% | 2.7% | /
CCOC(=O)c1ccc(NC(=O)c2cc(F)c(F)cc2Cl)cc1 | -1 | 3% | -1.5% | -27%

4 entries out of the list, sorted by length of the SMILES, descending.
Molecule | GLA inh pH 4.5 | Rango dissoc inh | Rango complex inh | miR-21 FLuc
CCOC(=O)[C@@H]1[C@H]2COc3ccccc3[C@@H]2N2C(=O)N(c3cccc(Cl)c3)C(=O)[C@]12C | / | 2% | 5.2% | 9%
CCOC(=O)N1CCN(C(=O)C(CC(C)C)NS(=O)(=O)c2ccc(C)cc2)CC1 (stereo unspecified) | / | -7% | 2.7% | /
Cc1cccc(C)c1NC(=O)CNC(=O)C(C)N1CCN(c2cccc(Cl)c2)CC1 (stereo unspecified) | / | -11% | -2.4% | /
CCCN1CCC(NC(=S)Nc2ccc(OC)c(OC)c2)CC1 | -3 | -3% | 0.2% | -1%

Other compounds follow:
Molecule | GLA inh pH 4.5 | Rango dissoc inh | Rango complex inh | miR-21 FLuc
CC(C)OC(=O)c1cc2c(=O)[nH]c(C(Cl)(Cl)Cl)nc2o1 | 6 | -5% | -2.6% | 3%
COc1ccc(N2CCN(C(=S)NC(=O)c3cccs3)CC2)c([N+](=O)[O-])c1 | -4 | 4% | -2.3% | -2%
CCc1noc(C)c1C(=O)N1CCN(S(=O)(=O)c2cccc(C(F)(F)F)c2)CC1 | / | -13% | 0.4% | /
COc1ccccc1C(=O)NC(=O)COC(=O)CNC(=O)c1ccc(Cl)cc1Cl | / | -19% | 4.0% | /
COc1ccc2ccc(O)c(CN3CCN(S(=O)(=O)c4cc([N+](=O)[O-])ccc4C)CC3)c2c1 | / | 3% | 1.4% | /
CC1=CC2=NC(=O)/C(=C\c3ccc(-c4cccc(Cl)c4)o3)C(=N)N2O1 | 0 | ? | ? | -5%
Cc1cccc(-c2nc(CS(=O)CC(=O)NCc3cccs3)c(C)o2)c1 (stereo unspecified) | -7 | 6% | -0.3% | -7%
CCN(CC(=O)NC1CCS(=O)(=O)C1)S(=O)(=O)c1c(C)c(C)cc(C)c1C (stereo unspecified) | / | -6% | ? | /
CN(c1ccc(O)cc1)S(=O)(=O)c1ccc2ccccc2c1 | / | -16% | -1.2% | -41%
CCn1c(CNC(=O)c2ccccc2Br)nnc1SCC(=O)NC1=NCCS1 | / | 8% | -1.7% | 2%

(next part)
Molecule | GLA inh pH 4.5 | Rango dissoc inh | Rango complex inh | miR-21 FLuc
CN(C)c1cccc2c(S(=O)(=O)NCc3ccc(S(N)(=O)=O)cc3)cccc12 | -10 | -14% | ? | 4%
COc1ccc(C(=O)Nc2nncs2)cc1S(=O)(=O)N1CCOCC1 | / | 1% | ? | 0%
Cc1cc(NC(=O)c2ccc(Cl)cc2Cl)no1 | / | 0% | 1.1% | -34%
COC(=O)CSc1nsc(SCC(=O)OC)n1 | 0 | 2% | 0.0% | -1%
Nc1cc(=O)[nH]c(SCC(=O)Nc2cccnc2Cl)n1 | / | 0% | -1.8% | -2%
CC(=O)OCn1nnc2ccccc2c1=O | 7 | 9% | -1.1% | -13%
Cc1sc(NC(=O)c2c(F)cccc2F)nc1-c1ccccc1 | / | 15% | 1.5% | 9%
CCN(CC)C(=O)CN(c1cc2c(cc1OC)oc1ccccc12)S(=O)(=O)c1ccc(C)cc1 | -8 | -8% | 0.0% | 8%
O=S(N1CCCCC1)C12CC3CC(CC(C3)C1)C2 (stereo unspecified) | 2 | -14% | -1.7% | 2%
Cc1cccc(C)c1NC(=O)CN(C)C(=O)c1ccc(NS(=O)(=O)c2ccc3[nH]c(=O)[nH]c3c2)cc1 | / | 11% | -0.3% | /

(cont.)
Molecule | GLA inh pH 4.5 | Rango dissoc inh | Rango complex inh | miR-21 FLuc
CC1(C)Cc2c(cnn2-c2ccccc2)C(NC(=O)CCCn2cncn2)C1 (stereo unspecified) | / | -23% | 0.1% | -16%
CCN(CC)C1Oc2cc3c(cc2C(c2cccc(OC)c2O)C1C)OCO3 (stereo unspecified) | / | 24% | 0.9% | /
COc1cc(/C=N\NC(C)=O)ccc1OC/C=C/c1ccccc1 | / | 1% | -0.3% | 4%
CCOc1ccc(C=NC23CN4CN(CN(C4)C2)C3)cc1 | -1 | 0% | -3.0% | 0%
CC(=O)Nc1ccc(C(=O)OCC(=O)Nc2c(F)cccc2F)cc1 | -1 | 4% | 3.2% | 0%
COc1ccc(S(=O)(=O)N2CCN=C2SCc2cccc(C)c2)cc1 | / | -19% | 0.1% | -13%
Cc1cccnc1NC(=O)c1sc2ccccc2c1Cl | / | 1% | -2.5% | -53%
COc1cccc(OCC(O)CN2CCc3ccccc3C2)c1 (stereo unspecified) | / | 8% | 3.2% | -4%
Cc1cc(C(=O)Cn2cnc3ccc(Cl)cc3c2=O)c(C)n1C1CC1 | / | 1% | -2.3% | /
O=C1c2cccc([N+](=O)[O-])c2C(=O)N1c1ccccc1 | -6 | 23% | 0.1% | 1%

Limited to Rango complex inh, miR-21 FLuc and Rango dissoc inh, for some of the entries so far:
mol	Rango complex inh	miR-21 FLuc	Rango dissoc inh
O=C1C2CCCN2C(=O)N1CCCCN1CCN(c2ccc(F)cc2)CC1 (stereo unspecified)	-3.2%	-8%	3%
O=C(CCCCCN1C(=O)CCC1=O)Nc1ccc(Br)cc1F	3.5%	-8%	?
CCOC(=O)c1c(NC(=O)C(=O)N/N=C/c2ccc(O)c(OC)c2)sc2c1CCCCC2	?	-6%	18%

Taken from above:
GLA inh pH 4.5, C[n+]1c2n(c3ccccc31)N=C(c1ccccc1)CS2 : 5&5
GLA inh pH 4.5, CC(C)(C)c1nn(-c2ccccc2)c2nc(Cl)c(C=O)cc12 : -3

(listing goes on)
Molecule | GLA inh pH 4.5 | Rango dissoc inh | Rango complex inh | miR-21 FLuc
O=C(NCCO)c1nc(NCCO)c2ccccc2n1 | 1 | -11% | 3.6% | -3%
CC1Cc2ccccc2N1C(=O)C12CCC(C)(C(=O)C1)C2(C)C (stereo unspecified) | -2 | -7% | 2.1% | 2%
Cc1ccc(NC(=O)COC(=O)COc2cccc3c2OC(C)(C)C3)cc1S(=O)(=O)N1CCOCC1 | / | 4% | -2.0% | /
CCCCSc1nnc(-c2c[nH]c3ccccc23)n1C | 2 | 15% | -0.9% | -38%
CCCCN(CC)CCCNC(=O)CS(=O)(=O)Cc1nc(-c2cccc(OC)c2)oc1C | -1 | -1% | -0.4% | 2%
COc1ccc(N(C(=O)Cc2cccs2)C(C(=O)NC2CCCCC2)c2cccn2C)cc1OC (stereo unspecified) | -3 | 4% | -1.8% | -6%

This is a subset (hit frequency here may not be typical).
